Compound activity: PubChem BioAssay, several laboratories
RN4220 kill: kills Staphylococcus aureus RN4220; S. aureus RN4220 growth, OD600, 16 h; hit rate 0.33% among 330,000; inhibition, % (no concentration beside the values);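 active = z-score of -3 or lower and OD600 up to 0.18 on both plates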;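 also: plate controls were untreated cells for no effect and reference antibiotic for full effect; stock transfer was 100 nL into about 80 µL; one replicate is shown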
Sa ugtP lethal: growth inhibition of S. aureus ugtP deletion strain. S. aureus RN4220 ugtP deletion, OD600 growth, 16 h; some inactives read as strong as hits. hit rate 0.54% among 330,000. growth inhibition, % (concentration not given with the values);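 active = z-score under -3 and OD600 up to 0.15 on both plates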;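 also: plate controls were untreated wells for no effect and antibiotic for full effect; wells of about 80 µL received 100 nL stock; the first replicate is given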
PrP 5UTR inh: suppresses PrP 5' UTR mRNA reporter expression; AID 488862; cell-based PrP 5' UTR mRNA reporter, plate reader; inhibition, % (concentration not given with the values); hit rate 0.35% among 340,000;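 active = every replicate at 50% or more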;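 also: 0 = median of the neutral control wells; tested in H4 reporter cells; numbers are from one replicate; inactives centre near -14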
BJeLR viability: kills HRASV12-expressing BJeLR cells. BJeLR (HRASV12) viability, CellTiter-Glo ATP luminescence, 48 h; reference of the scale not given here. inhibition, % (no concentration beside the values). hit rate 0.17% among 300,000;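 active = replicate mean above 50%; inconclusive = above 50% but judged a plate artefact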;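 also: 50 nL library stock added to about 25 µL; numbers are from one replicate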
Autofluor counter: counter-screen for toxin protease inhibitors: compound fluorescence; compound autofluorescence counterscreen, microsphere flow cytometry; stronger effect = higher value; fluorescence intensity (concentration not given with the values); hit rate 3.1% among 360,000; AID 624483;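 active = at least 3 SD above the mean of all compounds, about 16000 in these data; inconclusive = too few beads counted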;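 also: 100 nL of 1 mM stock went into each well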
Mtb hypoxia inh: Mtb hypoxia fluorescent reporter inhibition; M. tuberculosis hypoxia-regulated fluorescent reporter, fluorescence; fluorescence inhibition, % (no concentration beside the values); hit rate 0.1% among 300,000; AID 1159583;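 active = 35 to 45% if threefold the growth effect, above 45% if 1.5-fold the growth effect; inactive = the rest, general growth blockers included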;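 also: wells of about 50 µL received 100 nL stock; 0% = vehicle wells and 100% = reference inhibitor wells; whole bacteria with a GFP reporter of the hypoxia response; strong numbers were not always called active; many hits fall short of the cut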
Mtb hypoxia inh growth: recorded beside Mtb hypoxia inh, whose call it bears; growth inhibition, %; measured here: M. tuberculosis growth (absorbance);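 0% = vehicle and 100% = reference antibiotic; read after six days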
* hit, by the source's call.

Results for Cc1cccc(CN2CCN(C3CCCC3)C(CCO)C2)n1 (stereo unspecified) ?
RN4220 kill: -1.0; Sa ugtP lethal: 8; PrP 5UTR inh: -25; BJeLR viability: 5; Autofluor counter: 2229; Mtb hypoxia inh: -5; Mtb hypoxia inh growth: -18

What do the screens show for `Cc1cc(C)cc(N(CC(=O)NCCSCc2ccccc2)S(C)(=O)=O)c1`?
RN4220 kill: -0.2; Sa ugtP lethal: -9; PrP 5UTR inh: -32; BJeLR viability: -15; Autofluor counter: 3352; Mtb hypoxia inh: -11; Mtb hypoxia inh growth: -2

Results for C=CCN(CC=C)C(=O)c1cccc(OC2CCN(CC(C)(C)C)CC2)c1 ?
RN4220 kill: 5.8; Sa ugtP lethal: 2; PrP 5UTR inh: -48; BJeLR viability: 8; Autofluor counter: 4189; Mtb hypoxia inh: 18; Mtb hypoxia inh growth: 10

Results for Cc1ccn2c(CNCC3COCCO3)c(C(=O)N3CCCCCC3)nc2c1 (stereo unspecified) ?
RN4220 kill: -1.7; Sa ugtP lethal: -7; PrP 5UTR inh: -1; BJeLR viability: 4; Autofluor counter: 4211; Mtb hypoxia inh: -7; Mtb hypoxia inh growth: -5

How did O=C1c2ccccc2C(=O)c2c(NCCCN(CCO)CCO)cccc21 do in these assays?
RN4220 kill: -3.8; Sa ugtP lethal: -1; PrP 5UTR inh: -28; BJeLR viability: 14; Autofluor counter: 4612; Mtb hypoxia inh: 23; Mtb hypoxia inh growth: -5

Results for O=C(CN(CCc1ccccc1)S(=O)(=O)c1ccc(Cl)cc1)NN=Cc1ccccc1C(=O)O ?
RN4220 kill: 9.9; Sa ugtP lethal: 5; Mtb hypoxia inh: 7; Mtb hypoxia inh growth: 6

Results for CN(C(=O)Cc1noc2ccccc12)c1ccccc1 ?
RN4220 kill: 2.1; Sa ugtP lethal: 0; PrP 5UTR inh: -6; BJeLR viability: 10; Autofluor counter: 2343; Mtb hypoxia inh: -2; Mtb hypoxia inh growth: 5

How did CN1C(=S)N(c2cccnc2)C(=O)/C1=C\c1ccc(N(C)C)cc1 do in these assays?
RN4220 kill: 13; Sa ugtP lethal: -4; PrP 5UTR inh: -26; BJeLR viability: 4; Autofluor counter: 7524; Mtb hypoxia inh: 24; Mtb hypoxia inh growth: 8

Results for COc1ccc(C(=O)CC(=O)c2ccccc2)cc1 ?
RN4220 kill: 1.6; Sa ugtP lethal: 6; BJeLR viability: -3; Mtb hypoxia inh: 5; Mtb hypoxia inh growth: -1

Results for COc1cccc(NC(=O)C2C3C=CC(O3)C2C(=O)NCc2cccnc2)c1 (stereo unspecified) ?
RN4220 kill: 2.7; Sa ugtP lethal: 3; PrP 5UTR inh: -19; BJeLR viability: 1; Autofluor counter: inconclusive; Mtb hypoxia inh: 4; Mtb hypoxia inh growth: -3

How did O=C(Nc1ccc(F)c(Cl)c1)C1CC(=O)n2c(nc3ccccc32)N1 (stereo unspecified) do in these assays?
RN4220 kill: 5.4; Sa ugtP lethal: 13; PrP 5UTR inh: -3; BJeLR viability: 8; Autofluor counter: 3413; Mtb hypoxia inh: 2; Mtb hypoxia inh growth: 10

How did CC(=O)N/N=C(/C)c1ccc(NC(=O)c2csc(C)c2C)cc1 do in these assays?
PrP 5UTR inh: -110; BJeLR viability: 3; Autofluor counter: 4275

Results for c1ccc2c(c1)OCc1cn[nH]c1-2 ?
RN4220 kill: 4.2; Sa ugtP lethal: 11; PrP 5UTR inh: -35; BJeLR viability: 13; Autofluor counter: 3665; Mtb hypoxia inh: 9; Mtb hypoxia inh growth: 8

What do the screens show for `Cc1nn(C)c2ncc(C(=O)c3ccccc3O)cc12`?
RN4220 kill: 4.4; Sa ugtP lethal: 1; PrP 5UTR inh: -5; BJeLR viability: 5; Autofluor counter: 4690; Mtb hypoxia inh: 18; Mtb hypoxia inh growth: 2

Results for CC(=O)c1ccc(NC(=O)CSc2ccc(-c3sc(C)nc3C)nn2)cc1 ?
RN4220 kill: 9.2; Sa ugtP lethal: 2; PrP 5UTR inh: -4; BJeLR viability: 4; Autofluor counter: 6579; Mtb hypoxia inh: 2; Mtb hypoxia inh growth: 5

How did Fc1ccccc1CSc1nncn1NCc1cccs1 do in these assays?
RN4220 kill: 12; Sa ugtP lethal: 14; PrP 5UTR inh: -6; BJeLR viability: -1; Autofluor counter: 13836; Mtb hypoxia inh: -3; Mtb hypoxia inh growth: -1

How did Cc1cc(/C=N/NC(=O)CC2(C)OCCO2)c(C)n1-c1cc(Cl)cc(Cl)c1 do in these assays?
PrP 5UTR inh: 13; BJeLR viability: -4; Autofluor counter: 2754

Results for COc1ccccc1C(O)(c1ccccc1)c1ccccc1OC ?
RN4220 kill: 6.9; Sa ugtP lethal: 13; PrP 5UTR inh: -15; Autofluor counter: 3056

Results for Nc1ccc(C(=O)N(CCO)CCO)cc1 ?
RN4220 kill: 0.0; Sa ugtP lethal: -4; PrP 5UTR inh: -25; BJeLR viability: -4; Autofluor counter: 2061; Mtb hypoxia inh: -10; Mtb hypoxia inh growth: 2

How did C[C@@H]1C=C(C(=O)N2CCN(C)CC2)O[C@H](OCc2ccc(CO)cc2)C1 do in these assays?
PrP 5UTR inh: 0; BJeLR viability: -10; Autofluor counter: 3615

Results for Cn1c(SCC(=O)Nc2ccc(Br)cc2F)nnc1-c1ccco1 ?
RN4220 kill: 11; Sa ugtP lethal: 12; PrP 5UTR inh: -13; BJeLR viability: 21; Autofluor counter: 4904; Mtb hypoxia inh: 1; Mtb hypoxia inh growth: 8

How did COc1ccc(C2(CNC(=O)c3cccc([N+](=O)[O-])c3)CCOCC2)cc1 do in these assays?
RN4220 kill: 0.6; Sa ugtP lethal: 2; PrP 5UTR inh: -18; BJeLR viability: -25; Autofluor counter: 6861; Mtb hypoxia inh: 6; Mtb hypoxia inh growth: 4

How did COC(=O)C1[C@H]2C(=O)N(Cc3cccs3)C[C@]23C=C[C@H]1O3 (stereo partly specified) do in these assays?
RN4220 kill: -0.3; Sa ugtP lethal: -3; PrP 5UTR inh: -13; BJeLR viability: -2; Autofluor counter: 23081*; Mtb hypoxia inh: 5; Mtb hypoxia inh growth: 15

How did Cc1n[nH]c(=O)c2c(NC(=O)COC(=O)Cc3c(F)cccc3Cl)oc(C)c12 do in these assays?
RN4220 kill: 4.4; Sa ugtP lethal: -3; PrP 5UTR inh: -11; BJeLR viability: 2; Autofluor counter: 5803; Mtb hypoxia inh: 2; Mtb hypoxia inh growth: 2

Results for CCc1ccccc1OCC(=O)OCC(=O)Nc1cc(C)on1 ?
RN4220 kill: -0.5; Sa ugtP lethal: 4; Mtb hypoxia inh: 6; Mtb hypoxia inh growth: 1

What do the screens show for `CCc1cc(=O)n2c([nH]c3ccccc32)c1C#N`?
RN4220 kill: 61; Sa ugtP lethal: 35; PrP 5UTR inh: -12; BJeLR viability: -6; Autofluor counter: 3478; Mtb hypoxia inh: 9; Mtb hypoxia inh growth: 3

How did COc1cc([N+](=O)[O-])ccc1NC(=S)Nc1cc(C(=O)OC(C)C)cc(C(=O)OC(C)C)c1 do in these assays?
RN4220 kill: 19; Sa ugtP lethal: -4; PrP 5UTR inh: -6; BJeLR viability: 5; Autofluor counter: 2024; Mtb hypoxia inh: -12; Mtb hypoxia inh growth: -5

Results for COc1ccc(-c2nnc(NC(=O)CSc3ccccc3)s2)cc1OC ?
RN4220 kill: 3.4; Sa ugtP lethal: 3; PrP 5UTR inh: -17; BJeLR viability: 1; Autofluor counter: 1962; Mtb hypoxia inh: 10; Mtb hypoxia inh growth: 1

How did CSc1nc2ccccc2cc1/C=C(\C#N)c1ccc(Cl)c(Cl)c1 do in these assays?
RN4220 kill: 1.2; Sa ugtP lethal: 32; PrP 5UTR inh: -1; BJeLR viability: -7; Autofluor counter: 2842

How did ON=Cc1cn(-c2ccccc2)nc1-c1ccc2c(c1)OCCO2 do in these assays?
RN4220 kill: 4.9; Sa ugtP lethal: 6; Mtb hypoxia inh: 10; Mtb hypoxia inh growth: 3

What do the screens show for `CCOC(=O)C1CCN(Cc2cn[nH]c2-c2ccc(C)cc2)CC1`?
RN4220 kill: 2.2; Sa ugtP lethal: 1; PrP 5UTR inh: -14; BJeLR viability: -8; Autofluor counter: 6127; Mtb hypoxia inh: 6; Mtb hypoxia inh growth: 11

What do the screens show for `Cc1ccc(CNC(=O)CCCn2c(=O)c3ccccc3n(CC(=O)NCc3ccco3)c2=O)cc1`?
RN4220 kill: 2.4; Sa ugtP lethal: 0; PrP 5UTR inh: -13; BJeLR viability: 1; Autofluor counter: 2734

How did Oc1ccc(-c2sc(Nc3ccccc3)n[n+]2-c2ccc(F)cc2)cc1 do in these assays?
PrP 5UTR inh: -17; BJeLR viability: 4; Autofluor counter: 4105

Results for CCn1c2ccccc2c2cc(/C=N/O)ccc21 ?
PrP 5UTR inh: -7; BJeLR viability: 4; Autofluor counter: inconclusive

Results for CC(=O)c1cccc(NC(=S)NCCc2ccc(F)cc2)c1 ?
RN4220 kill: 6.2; Sa ugtP lethal: -2; PrP 5UTR inh: -39; BJeLR viability: -6; Autofluor counter: 6453; Mtb hypoxia inh: 11; Mtb hypoxia inh growth: 1

What do the screens show for `COC(=O)c1ccc(CON2C(=O)c3ccccc3C2=O)cc1`?
RN4220 kill: -8.6; Sa ugtP lethal: -9; PrP 5UTR inh: 2; BJeLR viability: -14; Autofluor counter: 2426; Mtb hypoxia inh: -2; Mtb hypoxia inh growth: 13

Results for CC(=O)c1cccc(NC(=O)c2sc(Cl)nc2C)c1 ?
RN4220 kill: 0.1; Sa ugtP lethal: 6; PrP 5UTR inh: -13; BJeLR viability: -1; Autofluor counter: 3406; Mtb hypoxia inh: -4; Mtb hypoxia inh growth: -6

Results for Cc1nc(CSc2nsc(C)c2C#N)cs1 ?
RN4220 kill: 6.8; Sa ugtP lethal: -2; PrP 5UTR inh: -31; BJeLR viability: 0; Autofluor counter: 2243; Mtb hypoxia inh: 0; Mtb hypoxia inh growth: -1

What do the screens show for `COc1ccc(C2=NOC(C(=O)NC3CCCCC3)C2)cc1OC` (stereo unspecified)?
RN4220 kill: 1.6; Sa ugtP lethal: 3; PrP 5UTR inh: -20; BJeLR viability: 0; Autofluor counter: 23218*; Mtb hypoxia inh: 6; Mtb hypoxia inh growth: 6

What do the screens show for `O=C(NC(Cc1ccccc1)C(=O)O)C1CCN(S(=O)(=O)c2ccccc2C(F)(F)F)CC1` (stereo unspecified)?
RN4220 kill: 2.3; Sa ugtP lethal: -1; PrP 5UTR inh: -10; BJeLR viability: -12; Autofluor counter: 3944; Mtb hypoxia inh: -7; Mtb hypoxia inh growth: 7

Results for Cc1ccc(S(=O)(=O)N2CCCCC2)c(C)c1NS(C)(=O)=O ?
RN4220 kill: 6.7; Sa ugtP lethal: 9; PrP 5UTR inh: -20; BJeLR viability: 9; Autofluor counter: 4710; Mtb hypoxia inh: 3; Mtb hypoxia inh growth: -1

Results for O=C(NCc1ccc(F)cc1)c1cccs1 ?
RN4220 kill: 0.3; Sa ugtP lethal: 6; PrP 5UTR inh: -11; BJeLR viability: 6

How did Cc1nnsc1C(=O)N1CCN(c2ccc(F)cc2)CC1 do in these assays?
RN4220 kill: 4.2; Sa ugtP lethal: 14; PrP 5UTR inh: -27; BJeLR viability: -3; Autofluor counter: 4384; Mtb hypoxia inh: 9; Mtb hypoxia inh growth: 7

Results for CC(C)N1C(=O)N(c2ccc(Cl)cc2)C(C)(O)CC1(C)C (stereo unspecified) ?
RN4220 kill: 0.5; Sa ugtP lethal: 0; PrP 5UTR inh: -16; BJeLR viability: -7; Autofluor counter: 4113; Mtb hypoxia inh: 2; Mtb hypoxia inh growth: 0

Results for O=C(Nc1nc(-c2ccccc2)cs1)c1ccc(Br)o1 ?
RN4220 kill: 9.1; Sa ugtP lethal: -3; PrP 5UTR inh: -21; BJeLR viability: -13; Autofluor counter: 2594; Mtb hypoxia inh: 9; Mtb hypoxia inh growth: -1

A draw from above in order of SMILES length, lowest first.
Results for Cc1nc(CSc2nsc(C)c2C#N)cs1 ?
RN4220 kill: 6.8; Sa ugtP lethal: -2; PrP 5UTR inh: -31; BJeLR viability: 0; Autofluor counter: 2243; Mtb hypoxia inh: 0; Mtb hypoxia inh growth: -1

How did Cc1nnsc1C(=O)N1CCN(c2ccc(F)cc2)CC1 do in these assays?
RN4220 kill: 4.2; Sa ugtP lethal: 14; PrP 5UTR inh: -27; BJeLR viability: -3; Autofluor counter: 4384; Mtb hypoxia inh: 9; Mtb hypoxia inh growth: 7

What do the screens show for `CCOC(=O)C1CCN(Cc2cn[nH]c2-c2ccc(C)cc2)CC1`?
RN4220 kill: 2.2; Sa ugtP lethal: 1; PrP 5UTR inh: -14; BJeLR viability: -8; Autofluor counter: 6127; Mtb hypoxia inh: 6; Mtb hypoxia inh growth: 11
